2A Renilla: lowers the Renilla signal of an FMDV 2A StopGo reporter; AID 1745857; Potency, µM (series often up to 57.5 µM), without a hit: at the top dose signal change, negative = less light; 120,000 compounds, 0.32% hits; HEK cells with a luciferase reporter of 2A StopGo recoding; active means well fitted falling curve with a large enough effect; inconclusive means small, poorly fitted or top-dose-only effect; inactive means no such curve, though single readings can be large or run the other way; further: nearly all actives have a fitted effect of over 55% in size; overnight with compound
2A firefly: FMDV 2A StopGo reporter, firefly signal; HEK cells with a luciferase reporter of 2A StopGo recoding; 120,000 compounds, 0.23% hits; Potency, µM (doses to about 57.5 µM), for the others: at the top dose signal change, negative = less light; AID 1745856; active = well fitted falling curve with a large enough effect; inconclusive = small, poorly fitted or top-dose-only effect; inactive = no such curve, though single readings can be large or run the other way; further: nearly all actives have a fitted effect of over 60% in size; overnight with compound
Numbers without * were called inactive; ? = inconclusive; [ ] = remark or other dose. On the % scale 0 is the no-effect control and ±100 the full control effect; potency means the concentration at half of the fitted maximal effect. An excerpt; the hit share may differ from the screen's.

1	Cc1ccc2occ(CC(=O)Nc3ccc(Cl)c(C(F)(F)F)c3)c2c1
2	COCC(C)Nc1oc(-c2ccc(Cl)cc2)nc1C#N (stereo unspecified)
3	COCCNC(=O)CCCn1c(SCC(=O)c2ccc(F)cc2)nc2c(sc3ccccc32)c1=O
4	CN(C)CCCn1c(=O)c2[nH]cnc2n(C)c1=O
5	CC(C)N(C)CC1CCN(C(=O)NCCc2ccc(F)cc2)CC1
6	COC(=O)c1c(NC(=O)c2cccc(OC)c2)sc2c1CCC(C(C)(C)C)C2 (stereo unspecified)
7	CC(=C/c1ccccc1)/C=N/NC(=S)NC1CCCCC1
8	CCOC(=O)c1c(S(=O)(=O)N2CCN(c3cc(Cl)ccc3C)CC2)c(C)n(C)c1C
assay / compound | 1 | 2 | 3 | 4 | 5 | 6 | 7 | 8
2A Renilla | 101.9%[activator] | 0.0% | -12.5% | -13.1% | -4.5% | -12.6% | 30.2%[activator] | -6.1%
2A firefly | -0.1% | 121.3%[activator] | -5.8% | -11.0% | 17.0% | 0.0% | 13.6% | -11.5%

9	COc1ccc(C)cc1NC(=O)N1CCC(CN2CCC(C)CC2)CC1
10	CCC(CC)c1nnc(NC(=O)c2cc(C)nc3ccccc23)s1
11	CCCCn1c(SCC(=O)Nc2cccc(OC)c2)nc2c(sc3ccccc32)c1=O
12	O=C(OCc1cc(=O)n2nc(C3CCCCC3)sc2n1)c1ccc(F)cc1
13	CC(=O)c1ccc(NC(=O)CSc2nnc3ccc(-c4ccc(Br)cc4)nn23)cc1
14	CCC(C)c1ccc(NC(=O)COC(=O)C2CCCC2)cc1 (stereo unspecified)
15	O=C(CCl)N(CC1=CCSC1)c1ccccc1
16	Cc1ccc(-c2cc(C(=O)NCc3ccco3)c3ccccc3n2)cc1C
assay / compound | 9 | 10 | 11 | 12 | 13 | 14 | 15 | 16
2A Renilla | ? | 2.1% | -0.1% | 10.9% | 2.6% | 6.8% | -7.1%[1.06 µM] | 17.8%
2A firefly | ? | 8.9% | -14.9% | -4.7% | -6.0% | 59.4%[activator] | -9.9% | 0.0%

17	COc1ccc(C2=C(C)C(=O)N(Cc3ccc(C(=O)Nc4ccc(C)c(C)c4)cc3)S2(=O)=O)cc1
18	Fc1ccc(C(OCCN2CCN(CCCc3ccccc3)CC2)c2ccc(F)cc2)cc1
19	O=C(Cc1c(F)cccc1Cl)Nc1ccccn1
20	COc1ccc(CNC(=O)C(CC(C)C)NS(=O)(=O)c2ccc3c(c2)oc(=O)n3C)cc1 (stereo unspecified)
21	CN(C)C(CNC(=O)CC1C=CCC1)c1ccsc1 (stereo unspecified)
22	COc1ccc(-c2nn(-c3cccc([N+](=O)[O-])c3)c3c2cnc2cc4c(cc23)OCO4)cc1
23	Cc1oc(-c2ccccc2)nc1CC(=O)NC(C)CN1CCOCC1 (stereo unspecified)
24	O=C(c1ccc(F)cc1)N1CCC(c2nc3ccccc3o2)CC1
assay / compound | 17 | 18 | 19 | 20 | 21 | 22 | 23 | 24
2A Renilla | -7.7% | ? | 3.3% | -6.7% | 10.4% | -18.1% | -11.3% | 7.8%
2A firefly | 3.1% | -1.4%[11.5 µM] | 77.7%[activator] | -1.4% | 0.0% | -16.8% | -2.4% | -18.3%

25	Cc1[nH]n(-c2nc3ccccc3[nH]2)c(=O)c1CCc1ccccc1
26	O=C(CC1CCCC1)NCCCNC(=O)CC1CCCC1
27	CCN(CC)c1ccc(NC(=O)c2ccc3ccccc3n2)cc1
28	Cc1ccc(NC(=O)CN2c3ccccc3S(=O)(=O)c3ccccc32)cc1F
29	Cc1ccc(C2CC(=O)Nc3c2c(C)nn3-c2nc(C)cc(C)n2)c(C)c1 (stereo unspecified)
30	CCOC(=O)c1cc(-c2ccccc2)n(CCC(=O)Nc2cc(C)cc(C)c2)c1C
31	COc1ccc(C)cc1C(C)NC(=O)CC1Sc2ccccc2NC1=O (stereo unspecified)
32	CCN1CCN(c2cc(C(=O)O)c3cc(NC(=O)C(C)C)ccc3n2)CC1
assay / compound | 25 | 26 | 27 | 28 | 29 | 30 | 31 | 32
2A Renilla | ? | -5.1%[1.06 µM] | ? | 21.9% | -15.4% | -15.0% | 45.5%[activator] | -5.9%
2A firefly | 71.3%[activator] | 14.4% | 0.0% | 0.2% | -10.8% | -29.3% | 22.0% | 2.1%

33	Cc1ccc(OC(=O)CSc2nnc(-c3ccc4c(c3)OCO4)o2)c(C)c1
34	CCOC(=O)C1CCN(C(=O)Cn2ncn3nc(-c4ccco4)cc3c2=O)CC1
35	CCCNC(=O)NC(=O)CN(C)Cc1ccccc1C(F)(F)F
36	CC(OC(=O)c1cn(C)c2ccccc12)C(=O)NC(N)=O (stereo unspecified)
37	CCN(C(=O)CN(C)S(=O)(=O)c1ccc2c(c1)c(=O)n(C)c(=O)n2C)c1ccc(OC)cc1
38	Cc1nc2c(c(C)c1CCC(=O)NCc1ccc(F)cc1)c(=O)n(C)c(=O)n2C
39	COc1ccc(S(=O)(=O)Nc2cccc(-c3ccc(N4CCCC4)nn3)c2)c(OC)c1
40	Cc1ccc(-c2cc(C(=O)N3CCN(Cc4ccncc4)CC3)c3ccccc3n2)o1
assay / compound | 33 | 34 | 35 | 36 | 37 | 38 | 39 | 40
2A Renilla | -18.1% | -17.4% | 0.2% | -13.1% | -10.0% | -5.2% | 169.7%[activator] | 23.4%
2A firefly | -15.9% | -15.0% | 3.5% | -3.9% | -2.0% | -3.1% | -16.3% | 190.3%[activator]

41	S=C(NCCc1ccc(Cl)cc1Cl)NCc1ccccc1
42	COc1ccc(NC(=O)c2cc3c(=O)n(C)c4ccccc4c3s2)cc1Cl
43	CC(=O)Nc1ccc(NC(=O)c2nc3ccccc3nc2N2CCCCC2)cc1
44	CC(CCc1ccccc1)NCCNC(=O)c1ccccc1 (stereo unspecified)
45	O=C(c1cc2cc(F)ccc2[nH]1)N1CCc2ccccc2C1
46	CCCCOc1ccc(C(=O)Nc2nc3c(s2)CC(C)CC3)cc1 (stereo unspecified)
47	CCCn1c(CN2CCN(c3ccc(OC)cc3)CC2)nc2c1c(=O)[nH]c(=O)n2C
48	O=S1(=O)CCN(C2CCCCC2)c2c(F)nc(N3CCCCC3)c(F)c21
assay / compound | 41 | 42 | 43 | 44 | 45 | 46 | 47 | 48
2A Renilla | 79.6%[activator] | -26.4% | -3.3% | 8.2% | 57.9%[activator] | -5.9% | -12.2% | 19.6%
2A firefly | 5.0% | 17.5% | 3.1% | -2.5% | 127.2%[activator] | 4.3% | ? | 10.9%

49	CCN(CC(=O)NCc1cccs1)C(=O)c1cccc(S(=O)(=O)N2CCc3ccccc32)c1
50	COc1ccc(Nc2cc(C)nc(Nc3ccc(NC(=O)CCc4ccccc4)cc3)n2)cc1
51	O=c1c2oc3ccccc3c2n(Cc2ccc(F)cc2)c(=O)n1Cc1ccco1
52	CC(Sc1nc2cc(Cl)ccc2s1)C(=O)NCc1ccc2c(c1)OCO2 (stereo unspecified)
53	CCCn1c2ccccc2c2cnn(CC(=O)NCCN(CC)CC)c(=O)c21
54	CCOc1ccc(CCNC(=O)c2cn(-c3cccc(OC)c3)c(=O)c3ccccc23)cc1
55	Cn1ncc(C(=O)N2CCN(c3ccc(F)cc3)CC2)c1C1CCN(C(=O)OC(C)(C)C)CC1
assay / compound | 49 | 50 | 51 | 52 | 53 | 54 | 55
2A Renilla | 82.4%[activator] | ? | -8.9% | 2.7% | -5.8% | 0.6% | -17.0%
2A firefly | 9.1% | 12.6µM* | -13.3% | -3.7% | -22.1% | -9.4% | -23.7%

High-throughput results: PubChem BioAssay, National Center for Advancing Translational Sciences (NCATS)
